# gsp antagonist – qHTS for Antagonists of gsp, the Etiologic Mutation Responsible for Fibrous Dysplasia/McCune-Albright Syndrome: qHTS. Potency, µM (top dose mostly 76.9 µM), for inactives: at the highest dose activity change, negative = inhibition, actives largely listed as inhibitors. gsp-mutant cells, cAMP HTRF, 30 min; control for the full effect not named in the record. 0.4% of 340,000 active; active = falling curve of any shape with a large fitted effect; inconclusive = falling curve, mostly with a smaller effect; inactive = flat or rising curve; cell line not stated here;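 also: intracellular cAMP measured with PDE inhibitor Ro 20-1724 present during compound exposure; potency is read from the fitted curve at half-maximal effect; % is scaled to controls: 0 for no effect and ±100 for the full control effect; nearly all actives have a fitted effect of over 65% in size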
#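 Measurement of cellular cAMP by homogeneous time-resolved fluorescence following a 30 min compound exposure at 37C. The PDE inhibitor […] was present throughout; the assay buffer was DPBS with 0.05% BSA and 0.005% Tween 20.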
# TRPML1 ag – qHTS for Agonists of the Human Mucolipin Transient Receptor Potential 1 (TRPML1); activation, % (concentration not given with the values); Mucolipin-1 (Homo sapiens), Q9GZU1; TRPML1-expressing cells, Ca2+ dye fluorescence, FDSS; host cell line not named in the record; reference of the full effect not given here; 0.12% of 410,000 active; AID 624414, 2012; in the data active = activation above about 50%; inconclusive = about 30% to 50%; inactive = below about 30%; also: 0% is about no effect; the text of the record puts the active cut at 80%
# Target sequence (Q9GZU1 whole entry, looked up): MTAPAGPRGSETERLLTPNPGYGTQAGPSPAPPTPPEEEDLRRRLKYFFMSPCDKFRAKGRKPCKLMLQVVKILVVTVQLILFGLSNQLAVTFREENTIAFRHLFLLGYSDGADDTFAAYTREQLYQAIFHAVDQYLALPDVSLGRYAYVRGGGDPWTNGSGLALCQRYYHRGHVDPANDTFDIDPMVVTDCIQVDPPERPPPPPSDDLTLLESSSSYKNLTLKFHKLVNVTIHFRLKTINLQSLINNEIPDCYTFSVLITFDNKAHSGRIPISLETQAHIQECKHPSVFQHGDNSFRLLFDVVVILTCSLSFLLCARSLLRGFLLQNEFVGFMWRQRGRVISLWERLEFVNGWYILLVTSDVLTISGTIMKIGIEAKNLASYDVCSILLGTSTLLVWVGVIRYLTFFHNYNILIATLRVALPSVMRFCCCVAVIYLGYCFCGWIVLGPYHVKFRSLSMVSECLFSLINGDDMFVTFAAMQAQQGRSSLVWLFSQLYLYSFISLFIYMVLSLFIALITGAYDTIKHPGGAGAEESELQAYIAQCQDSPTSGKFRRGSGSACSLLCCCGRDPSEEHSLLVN
#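 Tet-induced TRPML1-DL cells, 1,500 per well, cultured overnight, were loaded with a no-wash Ca2+ dye for 45–90 min. Calcium fluorescence was recorded on the FDSS for 110 s after compound addition, before the EC80 agonist (4 uM 54-4) was added.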
# TRPML1 inh – qHTS for Inhibitors of the Human Mucolipin Transient Receptor Potential 1 (TRPML1). Mucolipin-1 (Homo sapiens), Q9GZU1. 0.02% of 390,000 active. TRPML1-inducible cells, Ca2+ dye fluorescence, FDSS; hits give low values; inhibition of EC80 agonist-evoked calcium signal. activity change, negative = inhibition, % (test concentration not listed). AID 624415, 2012; in the data active means activity change below about -50%; inconclusive means about -30% to -50%; inactive means above about -30%;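 also: stimulus is agonist 54-4 at its EC80 concentration; % is scaled to controls: 0 for no effect and ±100 for the full control effect; compound concentration not given in the record; the text of the record puts the active cut at -80%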
#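 Calcium fluorescence in TRPML1-DL cells induced overnight with Tet: a 110 s read after compound pin addition, then a 110 s antagonist read after challenge with 54-4 at 4 uM final (EC80).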
# gsp agonist – qHTS for Agonist of gsp, the Etiologic Mutation Responsible for Fibrous Dysplasia/McCune-Albright Syndrome: qHTS. gsp mutant cells, cAMP HTRF, 30 min; control for the full effect not named in the record. Potency, µM (top dose mostly 76.9 µM), inactives show at the top dose activation (cAMP increase), actives largely listed as activators. 0.13% of 340,000 active; active = well fitted activation curve with a large enough effect; inconclusive = small, poorly fitted or top-dose-only effect, or another doubt; inactive = no such curve, though single readings can be large or run the other way; cell line not stated here;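 also: phosphodiesterase inhibitor Ro 20-1724 added with compounds to block cAMP breakdown; potency is read from the fitted curve at half-maximal effect; nearly all actives have a fitted effect of over 60% in size; about a fifth of the inactives were tested at one dose only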
#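 Cells stably selected in G418 were plated at 2000/well, grown 16-24 hr, then given compounds in DMSO with the PDE inhibitor […] (300 uM solution added) for 30 min at 37C; cAMP was read by HTRF.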
# Menin-MLL FL inh – qHTS Assay for Inhibitors Targeting the Menin-MLL Interaction in MLL Related Leukemias: Competition With Fluorescein Labeled MLL-derived Peptide; Fluorescence polarization, fluorescein-MLL peptide displacement from menin; FP activity change, % at 61.4 µM; 290,000 tested, under 10 active; inconclusive = falling polarisation curve, or a change in total fluorescence; inactive = total fluorescence flat and polarisation flat or rising; no compound was filed as active; the % refers to the polarisation; negative = inhibition;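 also: % of control where 0% means no effect; inhibitors lower the polarisation; unlabelled MLL peptide was the positive control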
# ClpP mod – qHTS Assay for Activators of ClpP; Potency, µM (series often up to 57.5 µM), without a hit: at the top dose activity change, negative = active; purified B. subtilis ClpP, FRET peptide cleavage, 20 min; 1.9% of 340,000 active; active = well fitted falling curve with a large enough effect; inconclusive = small, poorly fitted or top-dose-only effect; inactive = no such curve, though single readings can be large or run the other way; also: potency is read from the fitted curve at half-maximal effect; the source files actives as falling curves though it sought activators and does not explain the sign; nearly all actives have a fitted effect of over 65% in size; many hits overshoot -100%
# Target sequence (P80244 whole entry, looked up): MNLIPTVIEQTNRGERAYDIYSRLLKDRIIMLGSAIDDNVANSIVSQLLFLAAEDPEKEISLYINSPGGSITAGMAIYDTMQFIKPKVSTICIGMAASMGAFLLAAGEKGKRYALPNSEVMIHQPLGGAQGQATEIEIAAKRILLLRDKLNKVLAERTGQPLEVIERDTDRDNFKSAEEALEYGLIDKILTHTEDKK
#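 ClpP 10 microg/mL final, pH 8 Tris/KCl buffer with BSA, glycerol, Tween-20; compound pinned in; FRET-FV substrate; RT 20 min; Ex320/Em430; ΔFRET vs ADEP 5.8 microM, DMSO, no enzyme.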
# Numbers without * were called inactive; u = inconclusive; x = no result given; [ ] = another dose, or the depositor's remark.
SMILES,gsp antagonist,TRPML1 ag,TRPML1 inh,gsp agonist,Menin-MLL FL inh,ClpP mod
CCOc1ccc(NC(=O)CSc2nc(-c3ccccc3)c3cc(OCC)ccc3n2)cc1,x,-0.5,1,x,x,-4.2%
O=C(CC1=NC2(CCCC2)Cc2ccccc21)N1CCOCC1,-17%,0.8,-9,u,-4.0,0.3%
CCOc1ccc(-n2cc(-c3ccccc3)c3c(SC(C)C(=O)OC)ncnc32)cc1 (stereo not drawn),-22%,0.8,8,-25%,1.5,u
CC(C)(C)NC(=O)CCc1nnc(Cc2c[nH]c3ccccc23)o1,7%,1.5,-13,-5%,-0.6,-4.0%
CC(C)(C)n1nnnc1C(c1ccc(F)cc1)N1CCC(C(N)=O)CC1 (stereo not drawn),10%,0.8,1,16%,-3.3,-3.4%
NC(=O)c1cc2ccccc2o/c1=N\NC(=O)c1ccncc1,-22%,-0.4,5,u,2.7,x
CCOC(=O)c1noc2ncnc(N3CCN(c4cccc(Cl)c4)CC3)c12,x,-0.2,3,x,x,1.3%
Cc1nc(C)c(C(=O)OCC(=O)Nc2ccccc2SCC#N)s1,-13%,2.7,36,12%[15.4 µM],x,-0.2%
COc1cccc(C(=O)Nc2ccc(-c3nc4ccccc4o3)c(O)c2)c1,0%,1.6,-3,u,5.4,28µM*
O=C(COC(=O)CC1CC2CCC1C2)Nc1c(F)cccc1F (stereo not drawn),7%,-0.5,-4,-4%[15.4 µM],-2.0,x
NS(=O)(=O)c1ccc(CNS(=O)(=O)c2ccc3c(c2)OCCO3)cc1,11%,-1.3,-6,-24%,x,-1.9%
CC(=O)N1CCN(S(=O)(=O)c2cccc(C(=O)NNC(=O)Cn3ccc(C(F)(F)F)n3)c2)CC1,10%,1.3,-11,-20%[15.4 µM],x,x
O=C(CCc1ccccc1)NNC(=O)Nc1ccc(Br)cc1,7%,-0.2,3,u,x,0.9%
O=C(CCc1ccc(F)c(F)c1)NC1CCCN(Cc2ccc(Cl)cc2)C1 (stereo not drawn),-2%,-0.3,24,-13%,7.1,x
O=C(NCCCc1nc2ccccc2n1Cc1ccccc1F)c1ccco1,x,-0.3,2,x,x,-2.1%
Cc1csc(NC(=O)CSCc2c(C)noc2C)n1,6%,-0.4,7,4%[15.4 µM],x,x
COc1ccc(NC(=O)CSc2nncc(=O)n2N)cc1OC,-1%,0.0,21,-55%[inhibitor],-1.4,-4.5%
NNc1nc2ccccc2c(=O)n1Cc1ccccc1,-1%,0.0,9,-2%,2.4,x
COc1ccc2c([N+](=O)[O-])c(Cl)[nH]c2c1,4%,1.1,19,-122%[inhibitor],-2.2,-29%
COc1ccc(CCNC(=O)CCc2c(C)nc3cc(-c4ccccc4OC)nn3c2C)c(OC)c1,x,2.3,-3,x,x,-7.4%
CC(=O)C(C(c1ccccc1)N1CCCc2ccccc21)N1CCOCC1 (stereo not drawn),5%,-0.2,-3,-9%,x,x
COC(=O)CCNC(=O)Cc1ccc(S(=O)(=O)N2CCCCC2)s1,4%,0.9,-6,-14%[15.4 µM],x,x
CCCCc1nc2cc(C(=O)N3CCNC(=O)C3CC(=O)OC)ccc2o1 (stereo not drawn),-6%,0.1,-7,20%,-1.6,-2.3%
CNC(=O)c1c(O)c2cccc3c2n(c1=O)CCC3,0%,1.4,-17,-3%[15.4 µM],-4.9,-11%
CC1(C)C(=O)Nc2ccccc2N1C(=O)COC(=O)C1CCCCC1,11%,0.2,7,4%,0.9,0.8%
CCOC(=O)CSc1[nH]c2cc(OC)ccc2c1[N+](=O)[O-],0%,-0.8,8,3%[15.4 µM],-1.8,0.2%
CCOC(=O)c1cnc2cc(C(F)(F)F)ccc2c1N1CCN(c2ccc(F)cc2)CC1,x,0.2,-2,x,x,-0.4%
O=C(O)C(Cc1ccccc1)N1C(=O)C=CC1=O (stereo not drawn),x,-0.3,11,-45%[inhibitor],x,-0.4%
CSc1ccccc1NC(=O)CSCc1ccccc1Br,-15%,0.8,33,2%,-2.0,1.4%
Nc1c(C(=O)NCc2ccco2)nnn1-c1ccccc1,-6%,-0.7,-9,-66%[inhibitor],-0.8,-0.2%
O=C(NN=C1CCCCCCCCCCC1)c1ccncc1,-10%,-0.3,-9,-16%[15.4 µM],0.1,x
COCCNC(=O)COc1ccccc1Cl,13%,-0.4,-6,18%,8.2,1.0%
CCOc1ccc(CSC(CC(=O)O)C(=O)O)cc1 (stereo not drawn),5%,-0.2,1,-15%,-1.0,-0.7%
COc1ccc(Cl)cc1Nc1nc(-c2sc(NC(=O)CC(C)C)nc2C)cs1,8%,0.8,27,x,-1.4,-11%
O=C(CN1C(=O)C2CCCCC2C1=O)Nc1ccccc1C(=O)O (stereo not drawn),1%,1.7,-3,0%,0.9,x
CCC/C=N/NC(=O)C1COc2ccccc2O1 (stereo not drawn),-2%,-0.9,-4,2%[15.4 µM],-1.1,x
CCOc1ccccc1CNC(=O)CCC(=O)N1CCSc2ccccc21,x,3.7,-17,x,x,-1.0%
COC(=O)c1nn(Cc2ccccc2)c(=O)c2ccccc12,-10%,-1.3,0,-1%,x,0.1%
O=C(NC1CCCCC1)c1cc(Nc2cccc(C(F)(F)F)c2)nc2ccccc12,x,18,-9,x,x,u
COc1ccc(S(N)(=O)=O)cc1C(=O)OCC(=O)N1c2ccccc2NC(=O)C1(C)C,11%,-0.1,-2,-12%[15.4 µM],x,x
COc1c2ccoc2c(OC(C)=O)c2oc(C)cc(=O)c12,4%,0.3,-4,7%,1.0,0.8%
CC(=O)n1c(-c2ccccc2)c(-c2ccccc2)n(C)c1=O,5%,-0.1,-7,-6%[15.4 µM],x,0.4%
CCCN(c1nc(C)cc(OC)n1)S(=O)(=O)c1ccccc1,-12%,1.6,8,19%,2.7,-0.6%
COc1ccc(/C=N/Nc2nc(C(=O)O)cs2)cc1,7%,-0.3,8,-30%,-1.9,-1.7%
COc1ccc(-c2noc(CCC(=O)NCCN(C)Cc3ccccc3)n2)cc1,-1%,-0.4,4,-7%,3.8,-13%
COc1ccc(NC(=O)Cn2c(=O)n(-c3ccccc3)c(=O)c3c4c(sc32)CCCC4)c(OC)c1,x,-0.5,21,x,x,-2.0%
COc1ccc(-n2c(C)cc(/C=C3\SC(=O)NC3=O)c2C)cc1,-37%,2.9,3,-36%[15.4 µM],0.1,-2.9%
O=C(NCCc1ccccc1)C(=O)NCC1CCCN1S(=O)(=O)c1cccs1 (stereo not drawn),0%,-0.1,-9,24%,x,-7.5%

# Part of the list above, with two lines to a compound:
# Results follow in this order: gsp antagonist	TRPML1 ag	TRPML1 inh	gsp agonist	Menin-MLL FL inh	ClpP mod
> COC(=O)c1nn(Cc2ccccc2)c(=O)c2ccccc12
 : -10%	-1.3	0	-1%	x	0.1%
> O=C(NC1CCCCC1)c1cc(Nc2cccc(C(F)(F)F)c2)nc2ccccc12
 : x	18	-9	x	x	u
> COc1ccc(S(N)(=O)=O)cc1C(=O)OCC(=O)N1c2ccccc2NC(=O)C1(C)C
 : 11%	-0.1	-2	-12%[15.4 µM]	x	x
> COc1c2ccoc2c(OC(C)=O)c2oc(C)cc(=O)c12
 : 4%	0.3	-4	7%	1.0	0.8%
> CC(=O)n1c(-c2ccccc2)c(-c2ccccc2)n(C)c1=O
 : 5%	-0.1	-7	-6%[15.4 µM]	x	0.4%

# (cont.)
SMILES,gsp antagonist,TRPML1 ag,TRPML1 inh,gsp agonist,Menin-MLL FL inh,ClpP mod
CC(C)(C)NC[C@@H](O)COc1cccc2c1CCCC2=O,-9%,0.2,-4,x,x,-3.5%
Cc1nc2cccnc2n1C1CCN(S(C)(=O)=O)CC1,x,0.1,9,x,x,-1.2%
Cc1ccc(NP(=O)(Nc2ccc(C)cc2)Nc2ccc(C)cc2)cc1,u,-0.2,-25,0%,4.1,x
COc1ccc(N(CC(=O)NC2CCCC2)C(=O)Cn2nnc(-c3ccc(OC)c(OC)c3)n2)c(OC)c1,x,0.3,14,1%[15.4 µM],1.6,x
CC(=O)N1CCN(C(=S)Nc2cc(S(=O)(=O)N3CCOCC3)ccc2Cl)CC1,3%,2.1,-24,15%,-4.5,-0.3%
Cc1nc2ccc([N+](=O)[O-])cc2c(=O)n1Cc1ccc([N+](=O)[O-])cc1,-6%,-0.4,-1,-1%,0.3,-1.8%
Cc1ccc(Nc2nnc(SCC(O)=C(C#N)c3nc4ccccc4[nH]3)s2)c(C)c1,-17%,1.9,20,5%,x,x
COc1cc2nc(CN(C)Cc3ccc(OC)c(OC)c3OC)[nH]c(=O)c2cc1OC,-1%,1.7,-12,-112%[inhibitor],2.4,-0.6%
CCOc1ccc(-n2c(=O)c3c4c(sc3n(CC(=O)NC(C)CC)c2=O)CCC4)cc1 (stereo not drawn),x,4.5,17,x,x,1.0%
Cc1nc(NC(=O)CCN2C(=O)C3CC=CCC3C2=O)sc1C (stereo not drawn),11%,-0.1,24,u,x,0.7%
Cc1cccc2sc(N3CCN(C(=O)CS(=O)(=O)c4ccc(F)cc4)CC3)nc12,x,1.9,-12,x,x,-0.4%
COc1cc(OC)nc(Oc2ccc(NC(C)=O)cc2)n1,10%,2.3,2,-10%[15.4 µM],-0.2,x
COc1cccc(Cn2cc(C(=O)NCCN(C)C)nn2)c1,12%,-0.5,20,12%,17,1.9%
CC(=O)Nc1ccc(SCC(=O)OCC(=O)NC(=O)NCCC(C)C)cc1,-11%,0.2,12,2%,-8.6,x
O=C(CSc1ccccc1)Nc1cc(Cl)ccc1Oc1ccccc1,u,2.2,13,-7%,3.2,24%
COc1ccc2c(c1)-c1nc(N)sc1CC2,2%,-0.4,-9,-40%[inhibitor],0.1,-4.2%
CCn1c(CSc2nnc(-c3ccc4c(c3)OCO4)o2)nc2cc(S(=O)(=O)N(C)C)ccc21,-22%,3.0,-19,-10%,3.4,-5.3%
COc1ccc(Nc2nc(-c3ccccc3)nc3ccccc23)cc1S(=O)(=O)N1CCOCC1,-7%,0.1,-3,23%,-1.4,4.4%
CCn1c(C(=O)N2CCC(C(=O)NCc3ccc4c(c3)OCO4)CC2)cc2sccc21,-18%,0.7,-3,15%,2.6,0.0%
Cc1nc(Nc2ccc3c(c2)OCCO3)c2oc3ccccc3c2n1,4%,-0.9,7,3%,-1.0,-8.1%
N#C/C(=C\c1c(Oc2ccccc2Cl)nc2ccccn2c1=O)C(=O)NC1CCS(=O)(=O)C1 (stereo not drawn),0%,0.5,-18,22%,-6.2,x
O=C(NCC1CCCO1)c1nn2c(C(F)(F)F)cc(-c3ccco3)nc2c1Cl (stereo not drawn),12%,-0.3,-5,-7%,x,-4.8%

# Screening results from PubChem.
